From PubChem BioAssay
Six1-Eya2 inh: qHTS Assay for Inhibitors of the Six1/Eya2 Interaction; Homeobox protein SIX1 (Homo sapiens) + Protein phosphatase EYA2 (Homo sapiens), …; AlphaScreen GST-Six1/His-Eya2 binding, biochemical; stronger effect = lower value; control for the full effect not named in the record; activity change, % (no concentration beside the values); 360,000 compounds, 0.56% hits; AID 651725, 2012; in the data active = activity change below about -65%; inconclusive = about -30% to -65%; inactive = above about -30%; note: % is set by controls: 0 for no effect and ±100 for the full control effect
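GST-Six1 + His-Eya2 (5X stock: 250/500 nM); Tris pH 8.0, 300 mM NaCl, 0.05% BSA, 0.02% Tween 20; GSH donor/Ni acceptor beads; 1 h 37 °C dark; AlphaScreen readout.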
D2 potentiator: Beta-Arrestin HTS for Positive Allosteric Modulators of the Human D2 Dopamine Receptor: Potentiators; DiscoveRx D2 beta-arrestin cells, luminescence, 90 min; 100% = 57 uM dopamine signal; 360,000 compounds, 0.23% hits; AID 624464, 2012; D(2) dopamine receptor (Homo sapiens), P14416; potentiation, % (no concentration beside the values); active = potentiation of 50% or more; inconclusive = 30% to 50%; inactive = 30% or less;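 note: compound concentration not given in the record; tested on top of an EC20 dose of dopamine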
Target sequence (P14416 whole entry, looked up): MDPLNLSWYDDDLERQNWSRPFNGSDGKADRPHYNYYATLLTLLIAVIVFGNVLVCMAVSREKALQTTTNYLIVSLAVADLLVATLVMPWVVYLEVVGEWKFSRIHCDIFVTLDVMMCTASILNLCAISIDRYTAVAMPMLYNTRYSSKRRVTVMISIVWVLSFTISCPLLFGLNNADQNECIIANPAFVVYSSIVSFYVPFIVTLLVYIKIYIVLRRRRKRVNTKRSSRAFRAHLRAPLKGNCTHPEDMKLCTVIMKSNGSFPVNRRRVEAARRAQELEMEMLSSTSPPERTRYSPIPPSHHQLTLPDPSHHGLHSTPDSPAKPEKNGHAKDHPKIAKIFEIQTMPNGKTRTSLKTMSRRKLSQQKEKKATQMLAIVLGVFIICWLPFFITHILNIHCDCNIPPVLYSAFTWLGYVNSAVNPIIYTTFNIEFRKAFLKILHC
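D2 cells co-treated with compound plus 50 nM dopamine (EC20) for 90 min at 37 deg C to detect potentiation. Beta-arrestin recruitment was read as enzyme-fragment luminescence after 1 h at ambient temperature. Full response was set by 57 uM dopamine.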
TRPV1 PAM: HTS Assay for Compounds that Act as Potentiators of the Vanilloid Receptor 1. Transient receptor potential cation channel subfamily V member 1 (Homo sapiens), Q8NER1. TRPV1-expressing cells, Fluo-8 calcium influx, capsaicin EC20 potentiation; host cell line not named in the record; control for the full effect not named in the record. potentiation, % at 8.33 µM. 320,000 compounds, 0.02% hits; active means potentiation above 80%; inconclusive means 30% to 80%; inactive means below 30%; note: 0% is about no effect
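Fluo-8 calcium influx in TRPV1-expressing cells, kinetic read (ex 480/em 520 nm). Compound added and read 3 min for agonist activity, followed by capsaicin at EC20 final and 2 min further read for enhancement.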
TRPML1 ag: qHTS for Agonists of the Human Mucolipin Transient Receptor Potential 1 (TRPML1); AID 624414, 2012; TRPML1-expressing cells, Ca2+ dye fluorescence, FDSS; host cell line not named in the record; reference of the full effect not given here; activation, % (concentration not given with the values); 410,000 compounds, 0.12% hits; Mucolipin-1 (Homo sapiens), Q9GZU1; in the data active = activation above about 50%; inconclusive = about 30% to 50%; inactive = below about 30%; note: 0% is about no effect; the text of the record puts the active cut at 80%
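TRPML1-DL cells, Tet-induced overnight (~16 h, 37 degrees C), loaded 45-90 min at room temperature with Ca8 no-wash calcium dye plus quencher. FDSS fluorescence: 10 s baseline, compound pin-transfer, 110 s agonist read, then EC80 54-4 (4uM final) and 110 s antagonist read.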
CtBP-E1A inh: qHTS Assay for Inhibitors of the CtBP/E1A Interaction | CtBP / adenovirus E1A interaction (AlphaScreen) | AlphaScreen GST-E1A/His-CtBP binding, 1536-well; stronger effect = lower value; control for the full effect not named in the record | activity change, % (concentration not given with the values) | 340,000 compounds, 0.49% hits | AID 651724, 2012; in the data active means activity change below about -65%; inconclusive means about -30% to -65%; inactive means above about -30%; note: % is set by controls: 0 for no effect and ±100 for the full control effect
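Homogeneous bead-based format: GST-tagged E1A captured on glutathione donor beads, His-tagged CtBP on nickel acceptor beads; compounds precede bead addition by 2 h at 37 °C.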
TRPML1 blocker: qHTS for Inhibitors of the Human Mucolipin Transient Receptor Potential 1 (TRPML1); TRPML1-inducible cells, Ca2+ dye fluorescence, FDSS; stronger effect = lower value; inhibition of EC80 agonist-evoked calcium signal; activity change, negative = inhibition, % (no concentration beside the values); 390,000 compounds, 0.02% hits; AID 624415, 2012; in the data active means activity change below about -50%; inconclusive means about -30% to -50%; inactive means above about -30%;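 note: stimulus is agonist 54-4 at its EC80 concentration; % is set by controls: 0 for no effect and ±100 for the full control effect; compound concentration not given in the record; the text of the record puts the active cut at -80%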
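Tet-induced TRPML1-DL cells loaded with Ca8 no-wash calcium dye were read kinetically on FDSS. Compound addition was followed by EC80 agonist 54-4 (4 uM final); inhibition was read over 110 s.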
The depositor's hits bear a star; ? = inconclusive; nt = no result given.

1	C=CCn1c(CCCOc2ccc(Cl)cc2Cl)nnc1SCC(=O)Nc1nccs1
2	NC(=O)C1CCN(C(=S)NC2CC3C=CC2C3)CC1 (stereo not drawn)
3	CCCn1nnc(NC(=O)c2cccc(OCC)c2)n1
4	CCCN1CCN(C(=S)Nc2ccc(SC(F)F)cc2)CC1
5	CSCCC(NC(N)=O)C(=O)N(C)CC(=O)Nc1ccc(C)cc1 (stereo not drawn)
6	COc1cc(C=C2C(=O)OC(c3ccccc3)OC2=O)cc(Br)c1O (stereo not drawn)
7	Cc1c2cnn(CC(=O)NCCN3CCOCC3)c(=O)c2c(C)n1Cc1ccc(F)cc1
8	O=C(NCC1CCCO1)c1cc2c([nH]c3ccccc32)c(-c2cccc(Cl)c2)n1 (stereo not drawn)
compound no.	1	2	3	4	5	6	7	8
TRPML1 ag	1.5	0.0	-0.3	-0.5	-0.3	0.3	-0.3	nt
CtBP-E1A inh	25	-11	-2	-18	-3	6	0	-6
TRPV1 PAM	4	-20	nt	-12	-6	-12	11	-13
D2 potentiator	-2	-23	-9	-18	-2	1	-3	-73
Six1-Eya2 inh	14	6	11	-7	11	1	-4	-6
TRPML1 blocker	3	-6	1	2	-16	15	-2	nt

9	COCCOC(=O)c1c(C)oc2ccc(OC(=O)c3cccs3)cc12
10	CN(C)CCCOC(=O)C1c2ccccc2Oc2ccccc21
11	CCOc1ccc(C(=O)NCC(=O)Nc2cc(C)ccn2)cc1OCC
12	CCOc1ccc(CNc2nc3ccccc3n2CCN2CCOCC2)cc1
13	CC1(C)CC(=O)C=C(c2ccccc2CO)C1=O
14	COc1ccc(CCNC(=O)COC(=O)c2sc(C)nc2C)cc1
15	CCOc1ccc(N2C(=O)CC(SC(=NC)Nc3cccc(F)c3)C2=O)cc1 (stereo not drawn)
16	Cc1ccc(/C(N)=N/OC(=O)c2ccc(C)cc2Cl)cc1
compound no.	9	10	11	12	13	14	15	16
TRPML1 ag	0.6	0.1	3.9	-0.7	-0.5	-1.1	-0.8	1.0
CtBP-E1A inh	17	-3	-2	3	4	nt	1	4
TRPV1 PAM	-2	15	5	-3	nt	17	-17	8
D2 potentiator	-5	-32	-4	-41	2	10	9	?
Six1-Eya2 inh	23	3	-3	-1	4	1	3	15
TRPML1 blocker	-2	20	8	2	-9	-8	22	-2

17	COc1ccc(C2C(C(C)=O)=C(O)C(=O)N2c2ccc(Br)cc2)cc1 (stereo not drawn)
18	O=C(O)c1ccc(NS(=O)(=O)c2ccc(N3C(=O)CCC3=O)cc2)cc1
19	CC(C)(C)C(=O)N1CCN(c2nc3ccc(Cl)cc3s2)CC1
20	Cn1c(=O)c(C(=O)NNC(=O)c2ccccc2Cl)c(O)c2ccccc21
21	CCCC1(C(=O)OC)NC(c2ccco2)C2C(=O)N(C)C(=O)C21 (stereo not drawn)
22	COc1cc(OC)cc(OCC(O)Cn2ccnc2C)c1 (stereo not drawn)
23	CC1CCc2sc(C(=O)N3CCC(C(N)=O)CC3)cc2C1 (stereo not drawn)
24	CCN(C(=O)c1cccc(S(=O)(=O)N2CCc3ccccc32)c1)C1CCS(=O)(=O)C1 (stereo not drawn)
compound no.	17	18	19	20	21	22	23	24
TRPML1 ag	nt	-0.2	2.0	2.8	-0.6	2.3	-0.8	-0.4
CtBP-E1A inh	nt	5	6	?	3	0	nt	nt
TRPV1 PAM	-9	-4	-3	12	2	14	-25	-2
D2 potentiator	8	-8	1	1	3	14	-1	-3
Six1-Eya2 inh	-3	2	5	?	2	2	2	7
TRPML1 blocker	nt	0	51	-7	4	-14	11	-10

25	N#CCCn1nc(-c2ccc([N+](=O)[O-])cc2)cc1Nc1ccccc1NC(=O)C(F)(F)F
26	CN(CC(=O)Nc1cccc(F)c1)C(=O)c1ccc(OCC2CCCO2)cc1 (stereo not drawn)
27	CCOc1cc(C(=O)OCC(=O)Nc2cccc(S(=O)(=O)NC3=NCCCCC3)c2)cc(OCC)c1OCC
28	O=C(CN(c1cccc(Cl)c1)S(=O)(=O)c1ccccc1)NN=C1CCCC1
29	CCC(=O)N(Cc1cc(=O)[nH]c2ccccc12)C1CCCCC1
30	CCN(CC)C(=O)[C@H]1C[C@H](CC(=O)NCC23CC4CC(CC(C4)C2)C3)C(=O)N2CCc3c([nH]c4ccc(Cl)cc34)[C@]12C
31	Cc1cc(C)c2cc(C(=O)N3CCC(Cc4ccccc4)CC3)[nH]c2c1
32	COc1cc2c(cc1NC(=O)CSCC(=O)O)oc1ccccc12
compound no.	25	26	27	28	29	30	31	32
TRPML1 ag	3.4	0.6	4.5	1.3	1.9	-0.4	1.2	0.9
CtBP-E1A inh	-16	8	-11	-9	-3	-5	-9	0
TRPV1 PAM	-3	-3	nt	-1	1	nt	10	13
D2 potentiator	1	2	-11	-4	-8	-7	-14	-12
Six1-Eya2 inh	-5	-5	-2	-1	-2	-10	-7	?
TRPML1 blocker	7	28	31	15	-19	13	20	-11

33	Cc1nn(Cc2ccccc2)c(Cl)c1/C=N/NC(=O)CNc1cccc(C(F)(F)F)c1
34	O=C(NC1CCN(Cc2ccccc2)CC1)c1cccc(NS(=O)(=O)c2ccc(Br)cc2)c1
35	CC1Cc2ccccc2N1C(=O)CN1CCC(n2nnc3cc(C(F)(F)F)ccc32)CC1 (stereo not drawn)
36	O=c1ccc2cc3ccoc3cc2o1
37	CC(C)NCCCOc1ccc(C(C)(C)c2ccccc2)cc1
38	COc1cc(F)ccc1-c1csc(C(O)c2ccccc2)n1 (stereo not drawn)
39	Cc1ccccc1NC(=O)Nc1cc(-c2ccccc2)nn1C
40	CCCCS(=O)(=O)C1CCS(=O)(=O)C1 (stereo not drawn)
compound no.	33	34	35	36	37	38	39	40
TRPML1 ag	-0.5	0.1	1.0	nt	-0.2	-0.7	0.5	-0.4
CtBP-E1A inh	-17	-3	-7	6	0	10	1	11
TRPV1 PAM	1	nt	11	-2	12	nt	-4	7
D2 potentiator	-11	-5	-29	-9	-8	-2	-9	-16
Six1-Eya2 inh	-1	-3	-8	-1	0	10	4	11
TRPML1 blocker	22	-4	-14	nt	-3	nt	9	-5

41	COc1ccc(N2CCN(C(CNC(=O)CC(C)(C)C)c3ccc4c(c3)OCO4)CC2)cc1 (stereo not drawn)
42	COc1ccccc1NC(=O)O/N=C(\N)c1ccccc1
43	O=C(NN=C1CCCC1)c1cc(-c2ccc(F)cc2)nc2ccccc12
44	CC1Cc2ccccc2N1S(=O)(=O)c1cccc(C(=O)c2nccn2C)c1 (stereo not drawn)
45	O=C(Nc1ccc(N2CCOCC2)cc1)c1cccc(S(=O)(=O)N2CCCCCC2)c1
46	CCCCOC(=O)/C(=C\c1ccc([N+](=O)[O-])o1)NC(=O)c1ccccc1
47	COc1ccc(CNC(=O)c2noc(C(C)C)c2[N+](=O)[O-])cc1
48	COc1cccc(/C=C/C(=O)NCc2cn3cc(Cl)ccc3n2)c1OC
compound no.	41	42	43	44	45	46	47	48
TRPML1 ag	-0.5	nt	1.2	-0.3	1.1	-0.4	0.4	0.2
CtBP-E1A inh	-6	5	-4	15	4	23	-2	-4
TRPV1 PAM	4	-15	10	-7	9	-5	-7	-28
D2 potentiator	-34	14	-8	-10	-5	15	-9	-16
Six1-Eya2 inh	-8	3	-7	-6	0	23	10	-4
TRPML1 blocker	-7	nt	-6	6	-3	3	-4	-2

49	CCOC(=O)[C@H]1[C@H]2COc3ccc(Br)cc3[C@@H]2N2C(=O)CN(Cc3ccc(C)cc3)C(=O)[C@@]12C
50	CCCN(C(=O)Cn1ncc2c([nH]c3ccccc32)c1=O)c1ccccc1C
51	CCCn1nnnc1NCc1ccc(N(C)C)cc1
52	N#CC(=Cc1ccc(O)cc1)C(N)=C(C#N)C#N
53	CSCC[C@H](NC(=O)N1CCn2c1nc1ccccc12)C(=O)NC1CC1
54	CC(=O)Nc1sc2c(c1CN1CCCC1)CCCC2
55	CCN(CC)c1ncnc2c1nnn2C
56	O=c1cc(CSc2nnc3ccccn23)c2c(ccc3ccccc32)o1
compound no.	49	50	51	52	53	54	55	56
TRPML1 ag	0.6	2.5	0.9	9.2	0.0	0.2	0.3	0.7
CtBP-E1A inh	-9	2	4	-15	nt	-1	2	-6
TRPV1 PAM	5	-26	7	9	-4	-5	nt	11
D2 potentiator	-3	-8	-3	-13	1	-15	0	17
Six1-Eya2 inh	2	5	-11	-6	1	6	2	8
TRPML1 blocker	-1	-22	-4	-2	-7	-7	1	-16
